WNV protease inh: inhibitors of WNV NS2B-NS3 protease, primary screen, biochemical, fluorogenic substrate | Genome polyprotein (West Nile virus), P06935 | fluorogenic substrate Ex360/Em465; stronger effect = lower value | z-score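 (tested at a level between 10 and 100 µM)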 | 0.18% of 65,000 active | AID 577, 2007;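 active = z-score at -3 or under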;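 note: score is relative to mean and spread of the compound wells of a plate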
Target sequence (P06935 1371-1501 limits assumed): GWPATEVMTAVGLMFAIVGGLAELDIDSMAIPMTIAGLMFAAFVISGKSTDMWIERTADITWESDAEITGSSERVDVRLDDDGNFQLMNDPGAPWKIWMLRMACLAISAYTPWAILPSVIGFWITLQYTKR
Target sequence (P06935 1502-1679 limits assumed): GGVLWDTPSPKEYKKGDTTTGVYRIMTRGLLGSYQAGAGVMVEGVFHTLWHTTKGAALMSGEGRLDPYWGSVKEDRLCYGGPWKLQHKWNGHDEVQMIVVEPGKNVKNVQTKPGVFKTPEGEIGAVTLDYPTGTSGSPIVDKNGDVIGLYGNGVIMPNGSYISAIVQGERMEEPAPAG
MT1-MMP promoter: inhibitors of MT1-MMP promoter transcription, cell-based, luciferase reporter, luminescence (AID 618) | 0.62% of 87,000 active | MT1-MMP promoter luciferase reporter cells, luminescence | calls from a first round at 10 µM; hits with a dose series show EC50 in µM;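 active = over half of the reporter light lost at 10 µM or EC50 under 50 µM; inactive = the rest and hits that failed the dose series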;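 note: actives suppress MT1-MMP promoter-driven transcription so potencies describe inhibitors; HT1080 fibrosarcoma cells; overnight exposure; toxic or luciferase-blocking compounds were not removed from the actives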
Hsc70 ATP site: Hsc70 inhibitors, probe displacement, primary screen, biochemical, fluorescence polarization (AID 568); Heat shock cognate 71 kDa protein (Homo sapiens); 83,000 tested, under 10 active; displacement, % at 20 µM, or IC50 in µM where a hit was titrated; Hsc70 fluorescence polarization, probe displacement; higher % means a stronger effect; strong numbers were not always called active;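 active = displacement above 50% without optical interference and an IC50 on retest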;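 note: ATPase domain with a fluorescein-tagged ATP probe; 0% = vehicle and 100% = excess ADP; read after one hour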
* = called active by the depositor; i = inactive; . = no result given. Only part of the results is shown. The share of hits here may be higher or lower than overall.

SMILES	WNV protease inh	MT1-MMP promoter	Hsc70 ATP site
COC(=O)C(C)Oc1cc(C)cc2oc(=O)c3c(c12)CCC3 (stereo not drawn)	-0.6	i	2.0%
Clc1cccc(CN2CCCCC2c2cccnc2)c1 (stereo not drawn)	0.9	i	2.6%
CCC(=NCc1cccnc1)c1c(O)n(Cc2ccccc2)c(=O)[nH]c1=O	-1.6	i	6.1%
O=C(c1c[nH]cc1-c1ccccc1)c1cccc2ccccc12	.	i	4.6%
CC(=O)Nc1ccc2c(c1)CC1(C(=O)N(C)C(=O)N(C)C1=O)C1CCCN21 (stereo not drawn)	2.1	i	-3.5%
O=C1CC(=O)N(c2ccc(Cl)cc2Cl)C(=O)N1	0.04	i	-1.2%
CCCC1C(C#N)=C(N)Oc2c1c(=O)oc1ccccc21 (stereo not drawn)	.	i	0.5%
O/N=C/c1c[nH]c2ccccc12	-1.1	i	1.7%
Cc1cccnc1NC1=NCC(C)S1 (stereo not drawn)	-0.09	i	-6.4%
CCOC(=O)C(NC(C)=O)C(OC(C)=O)c1cccc(N(CCCl)CCCl)c1 (stereo not drawn)	.	i	-3.3%
Cc1ccc(CS(=O)(=O)Cc2ccc(C(=O)N3CCC4(CC3)OCCO4)o2)cc1	-1.3	i	-1.0%
CN1CCC(O)(c2ccccc2)C2CCCC21 (stereo not drawn)	0.08	i	-4.3%
CC12CN3CCN(CC(C3)C1O)C2 (stereo not drawn)	0.05	i	1.2%
CC(=NCC1CCCO1)c1c(O)n(Cc2ccccc2)c(=O)[nH]c1=O (stereo not drawn)	0.27	i	-3.9%
COCCCNC(=O)c1c(NC(=O)c2ccco2)n(Cc2ccccc2)c2nc3ccccc3nc12	0.65	i	-24%
CCNCC1(c2ccc(OC)c(OC)c2)CCCC1	-4.8*	i	0.2%
O=C1C2CCCN2C(c2cccnc2)N1c1ccc(Cl)c(Cl)c1 (stereo not drawn)	0.55	i	-0.2%
O=C(Cc1ccccc1)N1CCN(CC2CC=CCC2)CC1 (stereo not drawn)	-0.42	i	2.3%
CC1OC(NCCc2ccccc2)C(O)C(O)C1O (stereo not drawn)	-0.21	i	3.6%
c1ccc2sc(C3CCCNC3)nc2c1 (stereo not drawn)	0.15	i	2.2%
O=C(COC(=O)Cc1ccccc1)Nc1ncc(Cl)cc1Cl	.	i	5.3%
CCNC(=O)C1OC(n2cnc3c(N)ncnc32)C(O)C1O (stereo not drawn)	1.2	i	-1.6%
CNCC1(c2ccccc2)CCCC1	.	i	-3.6%
Cc1ccc2c(c1)CC1(CN2C)C(=O)NC(=O)N(CCC2=CCCCC2)C1=O (stereo not drawn)	-0.39	i	-9.6%
CCOc1ccccc1-n1c(O)c(C=NCCCN(CC)CC)c(=O)[nH]c1=O	1.6	i	-10%

Overlap with the part before: 2 entries, followed by the next part.
SMILES	WNV protease inh	MT1-MMP promoter	Hsc70 ATP site
Cc1ccc2c(c1)CC1(CN2C)C(=O)NC(=O)N(CCC2=CCCCC2)C1=O (stereo not drawn)	-0.39	i	-9.6%
CCOc1ccccc1-n1c(O)c(C=NCCCN(CC)CC)c(=O)[nH]c1=O	1.6	i	-10%
O=P(O)(O)/C=C(\Cl)c1ccccc1	-0.98	i	5.6%
O=C1OCCN1P(=O)(c1ccccc1)c1ccccc1	0.18	i	-0.8%
CCN(CC)P(=O)(Oc1cccc(C)c1)N(CC)CC	0.62	i	-2.1%
c1ccc(CNC2=NCCS2)cc1	.	i	4.6%
N=C(N)c1c(O)n(C2CCCCC2)c(=O)n(C2CCCCC2)c1=O	-0.41	i	0.7%
CCOC(=O)c1cn2nc(OP(=S)(OCC)OCC)cc2nc1C	-0.46	i	0.1%
CC(=O)c1cccc(NC2=NCC(C)S2)c1 (stereo not drawn)	0.24	i	-3.2%
O=C(C1CCCN(c2nnc(-n3cccc3)s2)C1)N1CCC2(CC1)OCCO2 (stereo not drawn)	-1.1	i	1.7%
CCC(=NCC1CCCO1)c1c(O)n(-c2ccc(Cl)cc2)c(=O)[nH]c1=O (stereo not drawn)	-1.1	i	-7.8%
CN1CCN(Cc2ccc(OC(F)(F)F)cc2)CC1	.	i	-5.9%
O=S(=O)(c1ccccc1)N1CN2CCN(C2)C1	0.21	i	0.9%
CCCCn1c(O)c(C(CC)=NCc2ccc(F)cc2)c(=O)[nH]c1=O	.	i	-1.3%
Cc1ccc(Cn2nnnc2CN2CCC(n3nnc4cc(C(F)(F)F)ccc43)CC2)cc1	0.25	i	1.9%
Fc1ccc2c(c1)nnn2C1CCN(Cc2nnnn2C2CCCCC2)CC1	1.1	i	-3.0%
Cn1c(N2CCNCC2)nc2ccccc21	.	i	5.1%
CCOc1cc(-c2nc3c(C)cccn3c2NCC2CCCO2)ccc1O (stereo not drawn)	1.2	i	1.3%
CCCCC(=O)C1C(=O)NC(=O)NC1=O	-1.1	i	2.8%
O=C(Nc1ccncc1)c1c(O)c2ccccc2n(Cc2ccccc2)c1=O	-0.07	i	-4.5%
Cc1cc(C)c(C(=O)CN2CCOCC2)c(C)c1	-0.94	i	-5.8%
COc1cc2[nH]c(=O)n(-c3ccc(C)cc3)c(=O)c2cc1OC	.	i	-1.1%
CCOc1ccc(Br)c(C2(O)CC(C)N(C)CC2C)c1 (stereo not drawn)	-0.87	i	7.9%
COc1ccccc1N(CC(=O)NC1CCCC1)C(=O)c1cnn(C(C)C)c1	.	i	-4.2%
CCn1c(=O)cc(OCC(=O)N2CCN(Cc3ccc4c(c3)OCO4)CC2)c2ccccc21	-0.21	i	-1.2%
O=C(CN1CC(c2ccccc2)CC1=O)Nc1ccc(F)cc1 (stereo not drawn)	-0.16	i	9.2%
CSc1nnc([C@@H](N)Cc2ccccc2)o1	-0.13	i	-7.9%

One compound at a time, from the list above.
Listed for CCN(CC)P(=O)(Oc1cccc(C)c1)N(CC)CC : WNV protease inh = 0.62; MT1-MMP promoter = i; Hsc70 ATP site = -2.1%
Listed for O=S(=O)(c1ccccc1)N1CN2CCN(C2)C1 : WNV protease inh = 0.21; MT1-MMP promoter = i; Hsc70 ATP site = 0.9%

Following part.
SMILES	WNV protease inh	MT1-MMP promoter	Hsc70 ATP site
O=C(CCCOc1ccc(Cl)cc1Cl)N1CCC2(CC1)OCCO2	-0.51	i	-9.0%
CCC(=Nc1ccc(OC)cc1OC)c1c(O)n(C2CCCCC2)c(=O)[nH]c1=O	-0.15	i	-2.5%
CN1C(=O)C(Cc2ccc3c(c2)OCO3)C(=O)N(C)C1=O	-0.06	i	-8.4%
c1cncc(C2CCCCN2Cc2ccc3c(c2)OCO3)c1 (stereo not drawn)	-0.1	i	1.6%
CCN(CC)CCCN=C(C)c1c(O)n(-c2ccccc2)c(=O)[nH]c1=O	1	i	7.0%
N#Cc1ccc(N2CCNCC2)c(F)c1	-1.2	i	-0.6%
O=c1[nH]c(=O)n(Cc2ccco2)c(O)c1C=NC1CC1	-1.3	i	-2.5%
O=c1cccc2n1CC1CC2CN(C(c2cccc(F)c2)c2sc3ncnn3c2O)C1 (stereo not drawn)	-0.83	i	4.5%
CC(C(=O)N1CCC2(CC1)OCCO2)C1Sc2ccccc2NC1=O (stereo not drawn)	1.8	i	0.9%
CN(C)C=C1C(=O)N(C2CCCCC2)C(=O)N(C2CCCCC2)C1=O	0.37	i	-8.3%
Cc1cc(N2C(=O)C3CCCN3C2c2sccc2C)no1 (stereo not drawn)	-0.39	i	-5.2%
CCOC(=O)C1C2NC(=O)N(Cc3ccccc3)C1(C)Oc1c(OC)cccc12 (stereo not drawn)	-0.41	i	4.0%
Cc1ccc(N(C)C(=O)Oc2cccc3cccnc23)cc1	-0.77	i	2.3%
CCc1cc2c(s1)NC(=O)CN=C2c1cccs1	2.4	i	-1.9%
c1ccc2[nH]c(CCNC3CCCCC3)nc2c1	0.71	i	-6.7%
CN1C(=O)NC(=O)[C@]2(Cc3ccccc3N3CCN(c4ccccc4)CC32)C1=O (stereo partly drawn)	.	i	-0.7%
CC(C)C12CN3CCN(CC(C3)C1O)C2 (stereo not drawn)	-0.81	i	-0.5%
O=C(Cc1ccccc1)N1CCN(C/C=C/c2ccccc2)CC1	0.89	i	-6.0%
COCC(C)OC(=O)c1c(N)n(Cc2ccco2)c2nc3ccccc3nc12 (stereo not drawn)	1.7	i	6.8%
O=c1[nH]c(=O)n(-c2cccc(Cl)c2)c(O)c1C=NCCN1CCCCC1	0.21	i	-1.2%
CC1CN=C(Nc2ccc(N(C)C)cc2)S1 (stereo not drawn)	-0.06	i	1.2%
COc1ccc(N2C(=O)CC(N3CC=C(c4ccccc4)CC3)C2=O)cc1 (stereo not drawn)	-0.61	i	-3.9%
O=c1[nH]c(=O)n(C2CCCCC2)c(O)c1C=NCCCn1ccnc1	0.29	i	-6.6%
COc1cc2c(C(=O)N3CCN(C)CC3)c(C)n(C)c2cc1Br	-0.03	i	6.9%
O=c1[nH]c(=O)n(Cc2ccco2)c(O)c1C=NCCCn1ccnc1	-0.63	i	-6.2%

(further entries)
SMILES	WNV protease inh	MT1-MMP promoter	Hsc70 ATP site
COc1ccccc1/C=C1/C(=N/O)C2CCN1CC2	-0.83	i	-2.1%
CCOC(=O)c1cccc([P+](=O)O)c1	0.63	i	2.9%
CCOc1cc(C=C2C(=O)NC(=O)NC2=O)ccc1OS(=O)(=O)c1ccccc1	.	i	0.7%
CN(C)CC1CSCCC1(O)c1ccc(Cl)cc1 (stereo not drawn)	.	i	1.1%
OC1(c2ccc(F)cc2)CCNC1 (stereo not drawn)	0.6	i	0.0%
COc1cccc(C2=NOC(C(=O)N3CCC4(CC3)OCCO4)C2)c1 (stereo not drawn)	-0.46	i	1.0%
Cc1nn(Cc2ccccc2)c(C)c1C(=O)OCC(=O)Nc1ccccc1SCC#N	-1.4	i	-20%
COc1ccc(/C=C2\C(=N\O)C3CCN2CC3)cc1	.	i	0.1%
O=C(Cn1ncc2c3ccccc3n(Cc3ccccc3)c2c1=O)N1CCC2(CC1)OCCO2	-0.5	i	4.0%
COc1cc(C2SCC(=O)Nc3c2c(=O)[nH]n3C2CCCCCC2)cc(OC)c1OC (stereo not drawn)	1.9	i	0.5%
CCOC(=O)C1=C(N)Oc2c(c(=O)oc3ccccc23)C12C(=O)N(C)c1ccccc12 (stereo not drawn)	-0.48	i	1.0%
CC(C)CCP(=O)(O)c1ccccc1	.	i	0.2%
CC1CCC(C(C)C)C(OP(N)(=O)c2ccccc2)C1 (stereo not drawn)	0.0043	i	4.3%
COc1ccc(CN2CCN(C(=O)Cc3ccccc3)CC2)c(OC)c1	-0.18	i	-2.6%
CCCC(C)C1(CC)C(=O)NC(=Nc2ccc(F)cc2)NC1=O (stereo not drawn)	-1.2	i	-5.8%
Cc1ccc2nc3c(cc2c1)CC1(C(=O)N(C)C(=O)N(C)C1=O)C1COCCN31 (stereo not drawn)	0.01	i	-2.6%
CCCCCCn1c(O)c(C=NCCCn2ccnc2)c(=O)[nH]c1=O	-0.03	i	-67%
O=c1c2ccccc2nc(-c2ccco2)n1-c1cccnc1	1.1	i	-0.8%
COc1ccc(C2NCc3ccc4c(c3-n3cccc32)OCO4)cc1OC (stereo not drawn)	1.4	i	-5.4%
Cn1ccnc1P(=S)(c1nccn1C)N1CCOCC1	3	i	-2.3%
CCC(=NC1CC1)c1c(O)n(-c2ccc(OC)cc2)c(=O)[nH]c1=O	1.6	i	3.2%
CC12CN3CC(C)(CN(C1)C3c1ccco1)C2=O (stereo not drawn)	0.59	i	-6.4%
Cc1oc(-c2ccc(Cl)cc2)nc1CS(=O)CC(=O)N1CCC2(CC1)OCCO2 (stereo not drawn)	0.81	i	-1.6%
COc1ccc(OC)c(N2C(=O)NC(=O)C3(Cc4cc(C)ccc4N(C)C3)C2=O)c1 (stereo not drawn)	-0.5	i	2.2%
C=CCn1c(O)c(C(CC)=NCCC2=CCCCC2)c(=O)[nH]c1=O	.	i	-4.4%

5 successive records already listed:
SMILES	WNV protease inh	MT1-MMP promoter	Hsc70 ATP site
CCC(=NC1CC1)c1c(O)n(-c2ccc(OC)cc2)c(=O)[nH]c1=O	1.6	i	3.2%
CC12CN3CC(C)(CN(C1)C3c1ccco1)C2=O (stereo not drawn)	0.59	i	-6.4%
Cc1oc(-c2ccc(Cl)cc2)nc1CS(=O)CC(=O)N1CCC2(CC1)OCCO2 (stereo not drawn)	0.81	i	-1.6%
COc1ccc(OC)c(N2C(=O)NC(=O)C3(Cc4cc(C)ccc4N(C)C3)C2=O)c1 (stereo not drawn)	-0.5	i	2.2%
C=CCn1c(O)c(C(CC)=NCCC2=CCCCC2)c(=O)[nH]c1=O	.	i	-4.4%

(further entries)
SMILES	WNV protease inh	MT1-MMP promoter	Hsc70 ATP site
Cc1ccc2c(c1)C1CN(C)CCC1N2C(=O)COc1ccc(S(=O)(=O)N2CCOCC2)cc1 (stereo not drawn)	-0.52	i	3.1%
CCN(CC)CCCN=C(C)c1c(O)n(-c2ccc(C)cc2)c(=O)[nH]c1=O	-0.41	i	5.3%
Cc1ccc(S(=O)(=O)NP(=O)(Oc2ccccc2)Oc2ccccc2)cc1	.	i	7.4%
CN(C(=O)c1ccco1)C1(c2ccccc2Cl)CCCCC1=O (stereo not drawn)	-0.77	i	1.9%
O=C(Nc1ccccc1)NC1CC2CCC(C1)N2 (stereo not drawn)	0.06	i	5.3%
CCOC(=O)C(C)(CC)NC(=O)CSP(=S)(OCC)OCC (stereo not drawn)	.	i	-0.4%
CCC(C)N=Cc1c(O)n(-c2ccccc2)c(=O)[nH]c1=O (stereo not drawn)	.	i	-5.2%
CSc1ccc(CNC2CN3CCC2CC3)cc1 (stereo not drawn)	0.16	i	3.9%
Cc1cccc(N2C(=O)CC(=O)NC2=O)c1	0.3	i	-3.4%

Screening results deposited in PubChem BioAssay by several laboratories.
